# TRPML1 ag: human mucolipin-1 channel agonism | 410,000 compounds, 0.12% hits | Q9GZU1 | TRPML1-expressing cells, Ca2+ dye fluorescence, FDSS; host cell line not named in the record; reference of the full effect not given here | activation, % (no concentration beside the values) | AID 624414; in the data active = activation above about 50%; inconclusive = about 30% to 50%; inactive = below about 30%; also: 0% is about no effect; the text of the record puts the active cut at 80%
# Target sequence (Q9GZU1 whole entry, looked up): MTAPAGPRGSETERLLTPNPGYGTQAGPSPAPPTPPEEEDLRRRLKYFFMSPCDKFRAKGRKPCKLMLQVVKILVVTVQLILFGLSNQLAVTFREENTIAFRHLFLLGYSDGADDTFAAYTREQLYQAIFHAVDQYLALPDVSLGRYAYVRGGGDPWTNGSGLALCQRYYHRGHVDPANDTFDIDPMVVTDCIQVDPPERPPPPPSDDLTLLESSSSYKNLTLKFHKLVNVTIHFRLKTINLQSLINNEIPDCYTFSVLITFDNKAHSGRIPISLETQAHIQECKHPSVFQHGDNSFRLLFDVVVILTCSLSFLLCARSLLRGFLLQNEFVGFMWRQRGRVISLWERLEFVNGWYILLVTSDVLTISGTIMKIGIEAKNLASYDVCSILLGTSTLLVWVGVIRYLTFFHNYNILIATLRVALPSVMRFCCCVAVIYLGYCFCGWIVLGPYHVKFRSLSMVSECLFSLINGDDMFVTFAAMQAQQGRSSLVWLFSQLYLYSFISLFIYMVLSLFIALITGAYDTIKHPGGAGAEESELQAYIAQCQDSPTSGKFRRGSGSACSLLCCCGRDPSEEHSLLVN
#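 Cells: TRPML1-DL, 1X Tet inducer, ~16 h at 37 degrees C/5% CO2. Dye: ABD Ca8 no-wash + quencher, 45-90 min RT. Read: 10 s baseline, compound add, 110 s agonist phase; 54-4 EC80 (4uM final), 110 s antagonist phase.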
# TRPML1 inh: blocks the human TRPML1 channel; TRPML1-inducible cells, Ca2+ dye fluorescence, FDSS; active compounds read low; inhibition of EC80 agonist-evoked calcium signal; 390,000 compounds, 0.02% hits; activity change, negative = inhibition, % (concentration not given with the values); Q9GZU1; in the data active means activity change below about -50%; inconclusive means about -30% to -50%; inactive means above about -30%;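 also: stimulus is agonist 54-4 at its EC80 concentration; % is scaled to controls: 0 for no effect and ±100 for the full control effect; the text of the record puts the active cut at -80%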
#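 Calcium fluorescence in TRPML1-DL cells induced overnight with Tet: a 110 s read after compound pin addition, then a 110 s antagonist read after challenge with 54-4 at 4 uM final (EC80).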
# CtBP-E1A inh: blocks the CtBP interaction with E1A | 340,000 compounds, 0.49% hits | AID 651724 | AlphaScreen GST-E1A/His-CtBP binding, 1536-well; active compounds read low; control for the full effect not named in the record | activity change, % (test concentration not listed); in the data active means activity change below about -65%; inconclusive means about -30% to -65%; inactive means above about -30%; also: % is scaled to controls: 0 for no effect and ±100 for the full control effect
#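 In 5 uL wells, 23 nL compound meets equimolar GST-E1A and His-CtBP (5X stock 125 nM each) for 2 h, 37 °C. Beads (5X, 50 ug/mL) then 1 h, 37 °C, dark.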
# D2 agonist: agonists of human D2 dopamine receptor (beta-arrestin); P14416; DiscoveRx PathHunter D2 beta-arrestin, luminescence, 90 min; 100% = 57 uM dopamine signal; activation, % (concentration not given with the values); 360,000 compounds, 0.084% hits; AID 624465; in the data active = activation above about 40%; inconclusive = about 15% to 40%; inactive = below about 15%; also: the text of the record calls up to 30% inactive
# Target sequence (P14416 whole entry, looked up): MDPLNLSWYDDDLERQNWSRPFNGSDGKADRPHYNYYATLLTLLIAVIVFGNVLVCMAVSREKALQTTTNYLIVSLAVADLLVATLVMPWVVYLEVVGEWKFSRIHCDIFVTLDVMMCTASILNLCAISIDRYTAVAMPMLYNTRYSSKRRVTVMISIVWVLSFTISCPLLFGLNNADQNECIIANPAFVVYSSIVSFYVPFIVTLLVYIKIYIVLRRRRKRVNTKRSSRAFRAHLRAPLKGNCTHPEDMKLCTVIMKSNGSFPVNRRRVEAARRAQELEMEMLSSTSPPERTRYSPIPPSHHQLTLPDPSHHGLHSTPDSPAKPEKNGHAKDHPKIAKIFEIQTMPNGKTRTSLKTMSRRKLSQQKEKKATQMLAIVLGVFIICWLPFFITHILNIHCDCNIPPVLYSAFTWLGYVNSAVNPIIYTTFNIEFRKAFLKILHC
#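 Agonist mode: compounds alone added to overnight-plated D2 PathHunter cells for 90 min at 37 C, with 57 uM final dopamine (EC100) defining full response. Beta-arrestin recruitment detected by chemiluminescent reagent, read after 1 h at ambient temperature.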
# Six1-Eya2 blk: blocks human Six1 binding to Eya2 | Q15475+O00167 | 360,000 compounds, 0.56% hits | AlphaScreen GST-Six1/His-Eya2 binding, biochemical; active compounds read low; control for the full effect not named in the record | activity change, % (concentration not given with the values); in the data active = activity change below about -65%; inconclusive = about -30% to -65%; inactive = above about -30%; also: % is scaled to controls: 0 for no effect and ±100 for the full control effect
#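 Six1/Eya2 binding was read as AlphaScreen signal after compounds were pinned into GST-Six1 plus His-tagged Eya2 (5X stock 250/500 nM) in pH 8.0 Tris/NaCl/TCEP buffer, beads added, then incubated 1 h, 37 C, dark.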
# PINK1 expr mod: PINK1 expression modulation | PINK1 immunofluorescence, high-content cytometry, 24 h | Potency, µM (top dose mostly 76.6 µM), without a hit: at the top dose activation (PINK1 increase), actives largely listed as activators | 410,000 compounds, 0.2% hits | AID 624263; active = well fitted activation curve with a large enough effect; inconclusive = small, poorly fitted or top-dose-only effect; inactive = flat fitted curve, though single readings scatter; cell line not stated here;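 also: potency is read from the fitted curve at half-maximal effect; % of control where 0% means no effect; nearly all actives have a fitted effect of over 65% in size; a mitochondrial uncoupler was the plate control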
#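 Fluorescence from anti-PINK1 antibody, together with nuclear and cell stains, was scanned on a laser-scanning cytometer. Before staining, stable-line cells were incubated 24 hours with compounds at 5 concentrations; primary antibody 12 h at 10 degrees C.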
# The depositor's hits bear a star; ? = inconclusive; . = not tested or not shown; & = joins results of further samples. An unsorted share of the library; 1% or so of the library scored in one or more.
# Results follow in this order: TRPML1 ag, TRPML1 inh, CtBP-E1A inh, D2 agonist, Six1-Eya2 blk, PINK1 expr mod
COc1ccc(-n2c3c(cc(C(=O)NNc4ccccc4)c2=O)C(=O)CC(C)(C)C3)cc1
  -0.9, 10, ., 5.6, 3, 0.2%
COc1ccc(Cl)cc1NC(=O)C1CCN(c2ncnc3c2nc2n3CCCCC2)CC1
  0.2, 8, ., ., ., 4.3%
Cc1nnc(NC(=O)c2c(F)c(F)c(F)c(F)c2F)s1
  0.3, -4, 5, 1.0, -1, -2.3%
CCC(=O)Nc1cccc(NC(=S)NC(=O)c2cccs2)c1
  1.2, 7, 6, 0.9, 0, -0.2%
CC1CCC(NC(=O)c2ccc(NC3=NC4CS(=O)(=O)CC4S3)cc2)CC1 (centres undefined)
  0.0, -17, 1, 1.3, -1, -2.2%
COc1ccc(N2CC(C(=O)N3CCN(Cc4ccc5c(c4)OCO5)CC3)CC2=O)cc1 (centres undefined)
  0.7, 12, 1, -4.1, 3, 0.3%
Cn1ccnc1-c1nc2ccccc2[nH]c1=O
  0.5, -9, -17, -0.8, -22, .
CCc1ccc(CNCc2c(C(=O)O)c(C)n(Cc3c(F)cccc3Cl)c2C)cc1
  -1.0, -9, ., ., ., -0.9%
CCc1cc2c(-c3ccccc3)cc(=O)oc2cc1OCC(=O)NCC1CCC(C(=O)O)CC1 (centres undefined)
  ., ., -21, -3.3, 0, 0.8%
Cc1cc(C)c(S(=O)(=O)N2CCCCC2CCNC(=O)C(=O)NCc2ccccn2)c(C)c1 (centres undefined)
  0.5, 1, -3, -3.0, 2, 1.0%
O=C(COc1ccc(Cl)cc1)Nc1cccc(S(=O)(=O)NCc2ccco2)c1
  3.1, 5, 0, 5.8, -8, 2.9%
Cc1ccc2nc(-c3ccncc3)cc(C(=O)N3CCOCC3)c2c1
  0.3, -8, 12, -6.2, 14, -0.6%
O=C(CN1C(=O)NC2(CCCCC2)C1=O)Oc1ccc2ccc(=O)oc2c1
  -0.7, 1, 1, -1.2, 3, -0.3%
Brc1cccc(-c2nnco2)c1
  -0.2, -14, 1, 0.4, 8, -0.2%
O=C(COC(=O)c1ccccc1F)NC1CC1
  -0.1, -1, 14, -3.9, 3, 0.3%
Cc1ccc(C(=O)c2ccc(O)cc2)cc1C
  4.7, 9, 0, -0.1, 1, 3.0%
CN(C)S(=O)(=O)c1cccc(C(=O)NCC2CCCCC2)c1
  -0.2, -2, 4, -2.0, -2, 0.6%
CC(=O)c1cnc2c(-c3ccc(Cl)cc3)c(C)nn2c1C
  -1.2, 13, 6, 0.3, 3, -1.6%
O=C(N/N=C/c1cccs1)c1cnccn1
  -0.4, -12, -8, -1.1, 2, -0.2%
COC(=O)C1=C(C)N(CC2CC2)C(=NCc2cccc(Cl)c2)N[C@H]1c1ccccc1
  1.1, -2, -1, -4.0, -4, 0.9%
CC(C)C[C@H](NC(=O)NCc1ccc(Cl)cc1)C(=O)O
  -0.4, -6, -2, 0.5, 10, 0.2%
COc1ccc(C(CNC(=O)c2cccc(NS(=O)(=O)c3ccccc3)c2)N(C)C)cc1 (centres undefined)
  0.8, 10, 2, -2.1, -1, 0.3%
O=C(Nc1ccccc1Cl)C1CCCN(c2ncnc3c2nc2n3CCCCC2)C1 (centres undefined)
  1.2, 0, -11, 2.6, -8, 2.1%
COc1ccc(C2CC(O)(c3ccccc3)Oc3cc(OC)cc(OC)c32)cc1 (centres undefined)
  4.2&1.6, -16&18, -9, 5.4, -6, 1.1%
C(=C\c1ccncc1)/c1ccccc1
  ., ., 16, 1.8, 4, 4.0%
CC(C)CN(C(=O)c1ccc(F)cc1F)c1c(N)n(CC(C)C)c(=O)[nH]c1=O
  -0.3, 0, 5, 4.3, -2, 5.3%
O=C(NCCCN1CCOCC1)c1ccc2c(c1)N(Cc1cccc(Cl)c1)C(=O)CS2
  0.0, -18, 2, 9.1, -1, 0.3%
CCCC(=O)NC(c1ccc(Cl)cc1Cl)c1ccc2cccnc2c1O (centres undefined)
  -0.7, -11, -73*, -1.5, ?, 6.3%
CCOC(=O)C1(CC)NC(c2ccco2)C2C(=O)N(c3ccc(C)cc3)C(=O)C21 (centres undefined)
  1.2, -5, -5, -5.3, 0, -0.4%
C=CCOn1c(C)c(C(C)=O)c2c3nonc3ccc21
  1.0, 21, 10, -1.2, 18, -0.7%
CCc1cccc(CC)c1NC(=O)CCS(=O)(=O)c1ccc(Br)cc1
  2.0, -6, ., ., ., -0.6%
COc1ccc(/C=C/C(=O)Nc2cc(C)nn2-c2nc3ccccc3[nH]2)cc1
  2.2, 4, -1, -1.4, 7, 8.8%
O=C1C(=O)N(C2CCN(S(=O)(=O)c3ccccc3)CC2)CCN1Cc1ccccc1
  -0.9, 13, ., ., ., 1.4%
COc1ccc(S(=O)(=O)NCCc2cc3ccc(C)c(C)c3[nH]c2=O)cc1
  1.0&-1.3, -26&6, -3, -0.6, -7, 3.8%&0.2%
Cn1c(CNC(=O)c2ccccc2)nnc1SCC(=O)N1CCN(c2ccccc2)CC1
  -0.8, 7, 4, 0.7, 5, 1.6%
COc1cccc(NC(=O)CSC2=Nc3ccccc3C3=NC(CC(=O)NCCc4ccccc4)C(=O)N23)c1 (centres undefined)
  2.0, -1, ., ., ., 2.2%
CCOC(=O)c1c(N)nn(C(=O)C(C)(C)C)c1-c1ccccc1
  1.4, -17, 7, -1.9, -1, 12%
O=C(Nc1ccc2oc(-c3ccncc3)nc2c1)c1ccc(Br)o1
  0.1, 31, -9, -0.1, 0, 16%
O=C(CN1CCN(Cc2cccc(F)c2)CC1)NCc1ccccc1
  0.8, -5, -6, 6.3, -12, -1.3%
COc1ccc(C2=NN(c3nc(C)cc(C)n3)C(=O)C2)cc1
  -0.5, -3, 12, -4.0, 2, 1.9%
Cn1c(=O)c2c(nc(N3CCc4ccccc4C3)n2Cc2ccccc2F)n(C)c1=O
  0.7, -3, 0, -3.5, -2, 1.3%
CCN(CC)C(=O)C1=C(C)N(CCCOC)C(=O)C(CC(=O)NCCCCc2ccccc2)C1 (centres undefined)
  -0.3, 4, 0, -6.2, 11, -0.1%
Cc1nc2c(C(=O)Nc3ccc(N4CCCC(O)C4)cc3)snc2c(=O)[nH]1 (centres undefined)
  0.6, -27, -17, -0.2, -14, 0.0%
COc1cc(C(c2c(C)[nH][nH]c2=O)c2c(C)[nH][nH]c2=O)cc([N+](=O)[O-])c1O
  -0.2, 27, -5, -7.1, 2, 1.1%
COc1cccc(N2CCN(C(=O)c3ccc(CS(=O)c4ccc(Cl)cc4)o3)CC2)c1 (centres undefined)
  0.9, -17, ., 1.1, -14, 0.6%
Cc1ccc(Cn2c(O)c(N=NC(=S)Nc3ccccc3F)c3cc(S(=O)(=O)N4CCOCC4)ccc32)cc1
  1.0, -10, -4, 7.2, -17, -0.3%
CC1CC(C)CN(C(=O)COC(=O)COc2ccc(C#N)cc2)C1 (centres undefined)
  -0.1, -8, 9, -1.9, 1, 2.2%
COCC(C)NC(=O)c1nn(Cc2ccccc2)c(=O)c2ccccc12 (centres undefined)
  1.4, 8, 2, 0.7, -4, 6.3%
Oc1ccccc1C1=NN(c2ccccc2)C(c2ccc(F)cc2)C1 (centres undefined)
  0.4, 33, 98, 3.2, 55, 7.2%
Cc1cccc(NC(=O)CCc2c(C)nc3ncnn3c2C)n1
  2.4, 1, -3, -2.4, -1, -2.0%

# (list continues)
# Results follow in this order: TRPML1 ag, TRPML1 inh, CtBP-E1A inh, D2 agonist, Six1-Eya2 blk, PINK1 expr mod
O=C(CCSc1ccccc1)NC(=O)COC(=O)c1ccc(OC(F)F)cc1
  2.0, -5, 0, -1.5, -5, 0.9%
O=C(c1nc2ccc(Cl)cn2c1CN1CCC(O)CC1)N1CCc2ccccc2C1
  0.4, 5, 5, -2.2, 9, -0.9%
Cc1ccc(NC(=O)CC(NCC2CCCO2)C(=O)O)cc1C (centres undefined)
  -0.5, 10, 1, -0.4, 7, 1.9%
CCN1CCN(CCC2Oc3cc([N+](=O)[O-])ccc3NC2=O)CC1 (centres undefined)
  0.1, -1, -2, -1.8, -4, 0.3%
Cc1ccc(S(=O)(=O)NCCS(=O)(=O)N2CCN(c3ccccc3)CC2)cc1
  0.0&1.8, -5&-4, -16, 12, -1, 1.1%&-0.9%
COC(=O)c1sc(N)c(C(=O)OC)c1COC(=O)CNS(=O)(=O)c1cccc(C#N)c1
  0.4, 5, 5, -2.6, -5, -1.4%
C=CCNc1nnc(SC2CC(=O)N(c3ccc(OCCC)cc3)C2=O)s1 (centres undefined)
  1.6, 11, -2, -3.5, 11, -0.7%
CCC(=O)Nc1cc(OC)c(NC(=O)c2ccccc2)cc1OC
  -0.2, 1, -17, 5.3, -6, -1.5%
CCCn1nc(C(=O)Nc2nnc(C3CC3)s2)c2ccccc2c1=O
  2.7, 5, -4, 0.3, 0, -0.9%
CCCNC(=O)c1ccc(Cn2c(SCC(N)=O)nc3ccccc3c2=O)cc1
  0.9, 34, ., ., ., -3.7%

# Part of the list above, reformatted.
compound	TRPML1 ag	TRPML1 inh	CtBP-E1A inh	D2 agonist	Six1-Eya2 blk	PINK1 expr mod
CCCC(=O)NC(c1ccc(Cl)cc1Cl)c1ccc2cccnc2c1O (centres undefined)	-0.7	-11	-73*	-1.5	?	6.3%
CCOC(=O)C1(CC)NC(c2ccco2)C2C(=O)N(c3ccc(C)cc3)C(=O)C21 (centres undefined)	1.2	-5	-5	-5.3	0	-0.4%
C=CCOn1c(C)c(C(C)=O)c2c3nonc3ccc21	1.0	21	10	-1.2	18	-0.7%
CCc1cccc(CC)c1NC(=O)CCS(=O)(=O)c1ccc(Br)cc1	2.0	-6	.	.	.	-0.6%

# Further structures follow:
# Results follow in this order: TRPML1 ag, TRPML1 inh, CtBP-E1A inh, D2 agonist, Six1-Eya2 blk, PINK1 expr mod
Cn1c(SCC(=O)N2c3ccccc3Sc3ccccc32)nc2ccccc21
  4.3, 13, -16, 1.0, -13, 2.1%
CC1=CC(C)(C)NC(=S)N1C(C)c1ccccc1 (centres undefined)
  ., ., -2, -8.3, -9, 4.1%
O=C(O)c1ccccc1-n1c(-c2ccccc2)cc2c1CCCC2=O
  -0.4, 12, 6, 1.0, 0, 0.8%
N#Cc1c(-c2ccccc2F)cc(-c2cccnc2)nc1N
  2.3, 25, -2, 2.6, 2, 0.3%
Cc1ccc(NC(=O)c2ncn(CCCNCc3ccccn3)n2)cc1C
  0.1, -7, ?, -3.0, ?, -1.2%
CCS(=O)(=O)N1CCN(C(=O)C(c2ccccc2)c2ccccc2)CC1
  -0.2, 9, 0, -0.5, 0, .
COc1cccc(C2CC(c3ccccc3Cl)n3ncnc3N2)c1 (centres undefined)
  0.8, 23, -3, 0.8, -3, 0.4%
Cc1nc2scc(-c3cccs3)c2c(=O)n1CC(=O)O
  -0.7, -4, 1, -2.7, -3, 3.6%
CCOC(=O)/C(C#N)=C\c1ccco1
  -0.7, 6, -1, -1.5, -6, 2.1%
CCN1C(=O)[C@H]2[C@@H](c3ccc(C(F)(F)F)cc3)N[C@]3(CCCN(Cc4ccc(OC)cc4)C3=O)[C@H]2C1=O
  -0.2, 7, -19, -6.1, 7, 0.5%
CC(=O)OCC(=O)[C@@]1(O)CC[C@H]2[C@@H]3CCC4=CC(=O)CC[C@]4(C)[C@H]3C(=O)C[C@@]21C
  -0.7, -5, -5, 3.3, 4, -0.8%
